# rRNA inh HTS: inhibitors of bacterial rRNA selective over humanized ribosomes. E. coli WT GFP vs humanized-ribosome RFP mutants, fluorescence, 24 h; stronger effect = lower value; DMSO median 0, no signal -100. GFP signal change (wild-type ribosome), % (concentration not given with the values). 350,000 tested, 1.6% active. AID 720706;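 active = significant combined selectivity score with lowered wild-type GFP, culture density cut under 30%, mutant RFP and density less affected; inactive = any of these conditions unmet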; note: one replicate is shown; some compounds called inactive have numbers as strong as hits
# Ecoli growth: E. coli growth inhibition; Escherichia coli growth, OD600, 23 h; stronger effect = lower value; OD600 absorbance (test concentration not listed); 330,000 tested, 0.21% active;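 active = OD600 absorbance below the run mean of sample wells minus 3.6 SD, in any replicate, cut at about 0.56 in these data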;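 note: stock transfer was 300 nL into about 60 µL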
# FGF22 binding: binders of recombinant human FGF22 by thermal shift | Q9HCT0 | SYPRO orange fluorescence; percent of sucrose octasulfate shift, DMSO zero | calls only at 9.99 µM | 340,000 tested, 1.5% active | AID 651658;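 active = melting point raised past a set limit in the mean and every replicate; inconclusive = no clear call; three in four hits are not shown here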
# Target sequence (Q9HCT0 whole entry, looked up): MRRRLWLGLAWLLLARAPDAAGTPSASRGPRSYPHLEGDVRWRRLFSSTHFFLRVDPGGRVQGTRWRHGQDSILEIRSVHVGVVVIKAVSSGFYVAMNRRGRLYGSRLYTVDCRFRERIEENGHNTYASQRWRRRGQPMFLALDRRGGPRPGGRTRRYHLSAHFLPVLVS
# AF4-AF9 inh: blocks AF4 peptide binding to human AF9; P42568; AlphaScreen, biotin-AF4 peptide binding to FLAG-AF9; inhibition, % at 10 µM; 350,000 tested, 0.47% active; AID 651704;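 active = every replicate reaching a set inhibition limit, whatever the replicate mean, cut at about 25% in these data; inconclusive = mean inhibition reaches that limit but some replicates miss it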;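 note: 0% = plate neutral control median and 100% = total signal loss; the record names both 10 and 1 µM as test concentration; the first replicate is given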
# ALR inh: inhibitors of human sulfhydryl oxidase ALR; P55789; purified ALR, DTT oxidation, H2O2 HRP-luminol luminescence; inhibition, % (concentration not given with the values); 290,000 tested, 3.8% active;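 active = mean and each replicate at 75% or more; inconclusive = only one of the two met; inactive = neither met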;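 note: stock transfer was 7.5 nL into about 7.5 µL; 0% = neutral wells and 100% = wells with inactivated enzyme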
# Target sequence (P55789 whole entry, looked up): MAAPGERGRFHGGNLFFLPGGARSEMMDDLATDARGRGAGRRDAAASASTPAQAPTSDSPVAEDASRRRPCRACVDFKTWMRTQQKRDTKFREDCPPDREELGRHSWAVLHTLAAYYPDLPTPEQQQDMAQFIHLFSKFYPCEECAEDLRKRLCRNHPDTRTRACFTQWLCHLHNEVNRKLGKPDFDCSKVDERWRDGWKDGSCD
# Vif A3G: HIV-1 Vif–A3G interaction blockers – biochemical, TR-FRET, GST-Vif 1-94, biotin-A3G peptide, dose response retest, primary screen (AID 1117319). TR-FRET GST-Vif / biotin-A3G peptide binding; higher % means a stronger effect; test concentration not given here; strong numbers were not always called active. 260,000 tested, 0.57% active. inhibition, %, or IC50 in µM where a hit was titrated;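 active = above the screen mean plus three standard deviations and confirmed in dose response; inconclusive = results disagree or hit not tested in dose response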;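 note: Vif residues 1-94 fused to GST binding biotinylated APOBEC3G peptide 110-148; 0% = full assay without inhibitor and 100% = GST in place of GST-Vif; retest series ran down from 100 µM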
# HNF4A DNA FP: change in binding of human HNF4 alpha to DNA | P41235 | HNF4a-FITC DNA binding, fluorescence polarization, 1 h | activity change, % at 10 µM | 360,000 tested, 0.3% active | AID 1224865; in the data active = activity change above about 30%, passing the limit was not always enough;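 note: controls were the assay level and a saturating level of protein; the project sought stronger binding though the title names inhibitors; some compounds called inactive have numbers as strong as hits; positive values seem to mean higher polarization but the record does not say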
# Target sequence (P41235 whole entry, looked up): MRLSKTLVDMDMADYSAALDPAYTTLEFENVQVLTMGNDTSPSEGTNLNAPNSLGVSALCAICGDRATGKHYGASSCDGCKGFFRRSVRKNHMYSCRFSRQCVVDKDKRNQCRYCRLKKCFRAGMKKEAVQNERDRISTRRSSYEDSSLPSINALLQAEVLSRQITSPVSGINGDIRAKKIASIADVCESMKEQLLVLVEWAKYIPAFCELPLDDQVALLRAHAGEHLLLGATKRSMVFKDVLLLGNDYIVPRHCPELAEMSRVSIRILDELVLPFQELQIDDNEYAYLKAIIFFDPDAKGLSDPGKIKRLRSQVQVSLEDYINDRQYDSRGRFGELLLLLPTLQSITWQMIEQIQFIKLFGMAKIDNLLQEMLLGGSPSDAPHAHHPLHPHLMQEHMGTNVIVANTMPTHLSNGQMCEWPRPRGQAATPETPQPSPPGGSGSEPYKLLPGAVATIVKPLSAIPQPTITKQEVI
# rRNA inh HTS OD600: also measured in rRNA inh HTS; calls as there; OD600 change, %; measured here: OD600 growth;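 optical density of the mix in the first replicate; 0 = DMSO median and -100 = no signal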
# rRNA inh HTS RFP: also measured in rRNA inh HTS; calls as there; RFP signal change, %; measured here: RFP humanized mutant strains;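 first replicate; 0 = DMSO median and -100 = no signal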
# An asterisk follows results filed as active; i = inactive; ? = inconclusive; . = no result given. Only part of the results is shown, so the mix of outcomes need not match the whole.
SMILES	FGF22 binding	rRNA inh HTS RFP	Vif A3G	rRNA inh HTS	rRNA inh HTS OD600	AF4-AF9 inh	ALR inh	HNF4A DNA FP	Ecoli growth
CCCCC[C@H](O)/C=C/C1=C(CCCCCCC(=O)O)C(=O)CC1	.	.	-1.9%	.	.	.	14.2	-8.9	.
CCOC(=O)C(NC(=O)Nc1ccc(F)cc1F)(Oc1ccc(F)cc1)C(F)(F)F (centres undefined)	i	3.0	-2.4%	0.4	-0.7	-25.8	0.6	0.8	0.688
CCCCOC(=O)c1ccc(NC(=O)C(=O)CC(=O)c2ccc(OC)cc2)cc1	i	-1.5	.	13.6	8.3	0.0	27.3	3.2	0.637
CCOc1ccc(NC(=O)CC2C(=O)N(c3ccccc3)C(=O)N2CCc2cccs2)cc1 (centres undefined)	i	-6.2	?	-6.4	-14.3	2.9	-13.8	-2.3	0.679
O=C(NCCc1ccccn1)C1CCCN(S(=O)(=O)Cc2ccccc2)C1 (centres undefined)	.	.	19.1%	.	.	.	4.3	5.6	0.69
CC(OC(=O)CN(C)S(=O)(=O)c1ccc(Cl)cc1)C(=O)Nc1ccc(N2CCOCC2)cc1 (centres undefined)	.	.	20.9%	.	.	.	.	0.6	0.775
COc1ccc2c(c1)CCCC21SC(NC(C)=O)=NN1C(C)=O (centres undefined)	.	1.4	.	6.5	-3.3	-1.9	-54.1	-3.6	0.717
CCN(C(=O)c1cccs1)c1nnc(-c2ccncc2)s1	.	.	-3.8%	.	.	.	-4.7	-2.5	0.695
CCN(CC)C(=O)c1cccc(-c2csc(C(C)(O)c3cccc(OC)c3)n2)c1 (centres undefined)	i	8.6	.	1.6	-11.1	-1.6	.	0.9	.
Cc1cccc(Nc2ncnc3c2cnn3C)c1	i	-0.2	.	7.5	7.8	-0.5	.	0.4	0.672
O=C(CC(=O)c1cc(Cl)ccc1O)c1ccccc1	i	-7.2*	-4.8%	-27.2*	-15.8*	-7.9	-3.1	-1.4	0.476*
O=C(CSc1nncs1)Nc1ccc(Cl)cn1	.	.	.	.	.	.	4.2	2.7	0.646
COc1cccc(CCNC(=O)CCCC(=O)c2ccccc2)c1	i	1.1	-11.7%	1.3	-1.9	-16.8	-4.8	7.6	0.664
CC(=O)Nc1ccc(-c2nnn(CC(=O)c3ccc(F)cc3)n2)cc1Cl	i	2.4	-10.5%	9.1	1.4	-31.4	-2.8	-1.4	0.713
OC(COCc1ccc2c(c1)OCO2)CN1CCC(Cc2ccccc2)CC1 (centres undefined)	i	0.8	-4.2%	12.4	5.5	1.9	-1.6	3.3	0.681
c1ccc2c(c1)ncn2CCn1cnc2ccccc21	.	.	.	.	.	.	-1.4	-4.7	0.74
O=C(Nc1nc(-c2ccccc2)cs1)C1COc2ccccc2O1 (centres undefined)	.	.	1.6%	.	.	.	-11.9	-1.6	0.74
Cc1ccc(S(=O)(=O)N2CCC(=O)N([C@H](CO)Cc3ccccc3)CC2)cc1	i	7.9	.	6.0	6.0	-0.1	.	-1.2	.
COc1cc(/C=C/C(=O)NCCn2c(C)cc3ccccc32)cc(OC)c1OC	i	21.4	1.2%	-2.3	0.5	-0.5	33.8	-6.0	0.746
CCOC(=O)CNS(=O)(=O)Cc1ccccc1	i	10.7	.	8.3	14.8	-0.8	-5.0	-2.9	0.674
O=C(c1cccc(-c2ccccc2)c1)N1CC[C@@H](N2CCC(O)CC2)[C@H](O)C1	i	1.7	.	12.1	8.1	-2.2	-23.1	-0.2	.
Cc1nnc(N/N=C/c2cc(C)n(-c3ccc(F)cc3)c2C)n1N	i	-14.2	?	-15.8	6.8	53.6*	-169.9	3.8	.
CC(=O)c1c(C)[nH]c(C(=O)OCc2nc3ccsc3c(=O)[nH]2)c1C	i	2.2	5.6%	-18.5	-13.2	-0.1	.	0.9	0.682
C[C@@H]1CN([C@H](C)CO)C(=O)c2cc(NC(=O)c3ccncc3)ccc2O[C@H]1CN(C)Cc1ccc(C(F)(F)F)cc1	i	0.3	.	0.5	2.2	0.4	.	.	.
O=C(CNC1=NCCC1)c1ccc(Cl)cc1	.	.	.	.	.	.	-17.6	-1.7	0.651
CCCOc1ccc(N2C(=O)CC(SCCN)C2=O)cc1 (centres undefined)	.	.	1.9%	.	.	.	1.0	2.0	0.721
Nc1c(Cl)cc2c(c1Oc1ccccc1)C(=O)c1ccccc1C2=O	.	.	7.9%	.	.	.	1.6	22.7	0.716
O=C1C=C(NCc2ccncc2)CC(c2ccccc2)C1 (centres undefined)	.	.	4.5%	.	.	.	7.0	-0.7	0.682
CCOc1c(/C=C(\C#N)C(N)=O)c2ccccc2n1CC	.	.	13.6%	.	.	.	.	0.8	0.697
COc1ccc(C(=O)Nc2ccc3c(c2)C(=O)N(C)[C@H]2CC[C@@H](CC(=O)NCC4CC4)O[C@H]2CO3)cc1	i	1.1	.	-1.9	2.4	-0.1	.	.	.

# Later entries.
SMILES	FGF22 binding	rRNA inh HTS RFP	Vif A3G	rRNA inh HTS	rRNA inh HTS OD600	AF4-AF9 inh	ALR inh	HNF4A DNA FP	Ecoli growth
Cc1ccc(-n2nc(C)c(C(=O)N3CCN(C(=O)c4ccco4)CC3)c2-n2cccc2)cc1	i	-0.5	12.4%	0.7	0.1	0.0	-10.9	-1.8	0.699
Cc1ccc(S(=O)(=O)Nc2ccc3c(c2)C(=O)N([C@@H](C)CO)C[C@H](C)[C@@H](CN(C)C(=O)Nc2ccc(F)cc2)OCCCC[C@@H](C)O3)cc1	i	5.8	.	2.6	0.4	2.1	.	.	.
O=C(N[C@@H]1CC[C@@H](CCNC(=O)C2CC2)O[C@H]1CO)c1ccncc1	i	-1.0	.	0.4	-5.1	-2.0	.	.	.
Cc1ccccc1-n1c(SCC(=O)NC(N)=O)nc2sc(-c3ccccc3)cc2c1=O	i	-3.3	12.5%	-2.9	-1.0	2.0	-6.2	0.6	0.685
CCOC(=O)c1c(C(C)(C)C)oc2ccc(OCC#N)cc12	.	.	?	.	.	.	2.4	7.8	0.689
O=C(CCc1nc(-c2ccccc2F)no1)NCCN1CCc2ccccc2C1	.	.	24.6%	.	.	.	-0.5	0.8	0.733
CCCCCCN1CCN(C2CN(Cc3ccc(C)cc3)S(=O)(=O)C2)CC1 (centres undefined)	i	2.6	.	11.1	3.5	-5.1	.	3.3	.
N#C[C@H]1[C@@H](c2ccc(-c3ccncc3)cc2)[C@@H](CO)N1C(=O)C1CC1	i	1.3	.	2.0	-3.4	-2.5	.	.	.
CCC(C)C(CO)NC(=O)/C=C/[C@H]1O[C@@H](n2cnc3c(NC(=O)c4ccccc4)ncnc32)[C@H](O)[C@@H]1O (some centres undefined)	i	-2.1	.	12.7	6.6	0.8	.	2.1	.
COCCNc1oc(-c2ccccc2Cl)nc1C#N	i	-1.6	1.0%	-4.4	-8.8	-3.9	.	-1.4	0.724
CCCCn1c(N)c(N(C)C(=O)c2cc3c(F)cccc3s2)c(=O)[nH]c1=O	i	4.8	.	7.6	6.2	0.1	0.5	7.3	0.709
CCOC(=O)CNC(=O)Cn1cnc2c(nnn2-c2cccc(OC)c2)c1=O	i	-0.7	-0.6%	10.5	14.1	-1.0	-8.2	2.3	0.663
S=c1[nH]c2ccc(Cl)cc2[nH]1	.	.	17.6%	.	.	.	56.2	1.7	0.668
CCC(=O)N1C[C@H](O)COC[C@@H]2O[C@H](CC(=O)NC)CC[C@H]21	i	-1.7	.	5.5	-7.4	-2.3	.	.	.
Cc1nnc(SCC(=O)N2CCCCCC2)n(N)c1=O	i	1.6	-0.9%	7.5	7.9	-3.4	.	0.3	0.677
COc1cc(C2C(C(=O)c3ccco3)=C(O)C(=O)N2c2cc(C)on2)ccc1OCc1ccccc1 (centres undefined)	i	-4.8	.	2.0	11.1	-0.4	2.4	.	.
Cc1ccc(C(=O)NCC(=O)NCC(c2cccs2)N(C)C)cc1C (centres undefined)	i	-3.4	.	4.5	10.0	0.1	.	-0.5	0.657
Cn1ncc2cc(NC(=S)NC(=O)c3ccccc3)ccc21	.	.	4.3%	.	.	.	38.2	1.6	0.697
COc1ccc(C(CNC(=O)COc2ccc(-c3ccccc3)cc2)N2CCOCC2)cc1 (centres undefined)	.	5.5	?	-15.5	-43.8	.	-10.2	-1.0	0.685
O=C(CNC(=O)c1ccc(Br)o1)NC1CCCCCC1	i	-4.6	4.8%	1.2	2.7	-17.8	15.6	1.0	0.655
CN(C)CCOC(=O)C1(c2ccccc2)CCCC1	.	.	4.3%	.	.	.	-10.4	-1.6	0.704
C[C@@H]1CCCCO[C@@H](CN(C)C(=O)C2CCCCC2)[C@@H](C)CN([C@@H](C)CO)C(=O)c2cc(NC(=O)NC3CCCCC3)ccc2O1	i	1.0	.	0.1	-2.1	-1.4	.	.	.
Cc1ccc(N(CC(=O)N/N=C/c2cccc(Br)c2)S(C)(=O)=O)cc1	i	0.1	8.0%	21.0	4.5	3.1	.	-1.6	.
COc1ccc(C(CNC(=O)c2cccc(N(C)C)c2)N2CCCC2)cc1 (centres undefined)	.	.	3.6%	.	.	.	42.1	2.8	0.658
CCOc1ccc(CCNC(=O)C2CC(=O)N(CCc3ccc(OC)c(OC)c3)C2)cc1OCC (centres undefined)	i	-1.8	7.9%	8.8	9.9	0.8	-3.7	-0.7	0.627
Cc1cc(=O)oc2cc(OCC(O)Cn3ccnc3)ccc12 (centres undefined)	i	0.1	-5.5%	-1.2	8.9	-0.7	-1.8	-2.5	0.731
C1C2CC3C1C3C2=NN=C1C2CC3C(C2)C13	i	-1.4	.	5.7	13.5	4.0	.	5.1	.
CCc1c(C#N)c(SCCC(=O)Nc2ccc(C)cc2)nc2c1C(=O)CC(C)(C)C2	.	.	2.9%	.	.	.	.	-1.7	0.576
Cc1ccc(NCC(=O)c2ccc(C)cc2)cc1	i	4.4*	.	-18.0*	-12.0*	-2.4	-5.9	0.7	0.681
Cn1c(=O)c2c(O)c([N+](=O)[O-])c(=O)n(C)c2n(C)c1=O	i	.	?	.	.	-3.0	-23.3	1.8	0.708

# (listing goes on)
SMILES	FGF22 binding	rRNA inh HTS RFP	Vif A3G	rRNA inh HTS	rRNA inh HTS OD600	AF4-AF9 inh	ALR inh	HNF4A DNA FP	Ecoli growth
COc1ccc(S(=O)(=O)Nc2ccc3c(c2)C(=O)N([C@H](C)CO)C[C@H](C)[C@@H](CN(C)S(C)(=O)=O)OCCCC[C@@H](C)O3)cc1	i	-0.5	.	3.7	5.1	-0.2	.	.	.
COc1ccc(CCNC(=O)CN(C)S(=O)(=O)c2ccc(OC)cc2)cc1	i	6.9	.	19.0	5.9	-4.4	.	0.0	0.657
CSc1ccc(CN2C(=O)C(C)Oc3c(C(C)=O)cccc32)cc1 (centres undefined)	i	2.1	.	-3.0	1.3	-2.2	.	0.0	.
CC1Cc2ccccc2N1C(=O)COC(=O)c1ccc(Cl)c(S(=O)(=O)N2CCOCC2)c1 (centres undefined)	i	7.8	1.4%	-16.1	-9.4	2.1	-3.3	-2.1	0.668
COc1ccc(NC(=O)c2ccco2)cc1NC(=O)c1ccc(Br)o1	.	.	13.4%	.	.	.	-0.8	-4.0	0.658
CCN(CC)S(=O)(=O)c1ccc(-c2nnc(SCC(=O)Nc3nc(C)cs3)o2)cc1	.	.	6.4%	.	.	.	-66.3	-4.5	0.719
CCOc1ccc(NC(=O)C/C(C)=N/NC(=O)Cc2ccc(Cl)cc2)cc1	.	0.9	1.8%	1.6	5.9	-1.9	.	-2.3	.
NC(=O)[C@H]1CC2(CC(c3cccc(NC(=O)CC(c4ccccc4)c4ccccc4)c3)=NO2)CN1C(=O)CC(c1ccccc1)c1ccccc1 (some centres undefined)	i	1.4	.	5.2	9.3	-1.8	8.0	0.8	.

# Assay outcomes from PubChem BioAssay.
